Assay outcomes as filed in PubChem BioAssay.
Arbovirus anti = antivirals against arbovirus infection, primary screen, cell-based, full library, 10K replicate subset. inhibition, % at 10 µM. arbovirus infection cell-based antiviral screen. hit rate 0.37% among 200,000;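 active = inhibition from about 30%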;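 note: bluetongue infection of BSR cells; cell survival read as ATP light after 72 h; 0% = infected wells without compound and 100% = uninfected wells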
Mtb H37Rv = M. tuberculosis H37Rv growth inhibitors, H37Rv strain (AID 1626); M. tuberculosis H37Rv growth inhibition; higher % means a stronger effect; inhibition, % at 10 µM; hits with a dose series show IC50 in µM; hit rate 0.95% among 220,000;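 active = confirmed in a dose series; inconclusive = inhibition above 80% but not taken into the dose series; inactive = below 80% or under 30% at every dose of the series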;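 note: bacteria incubated seven days before Alamar blue readout; 0% = bacteria only wells and 100% = bacteria with antibiotic wells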
YopH PTP inh = YopH tyrosine phosphatase inhibitors, primary screen, biochemical, fluorescence Ex485/Em525; hit rate 0.16% among 140,000; inhibition, %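 (about 10 µM by stock and volumes)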; AID 898, 2007; YopH tyrosine phosphatase [Yersinia enterocolitica];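 active = inhibition of 50% or more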;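 note: controls were vehicle for no effect and minimum signal wells for full effect; inactives centre near -20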
Mtb bLac sens = beta-lactam sensitization of Mtb H37Rv, H37Rv. M. tuberculosis H37Rv growth with meropenem, percent inhibition; hits of this screen are not shown here. inhibition, % at 25 µM. hit rate 0.27% among 330,000;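 active = about 74% or more and at least 40 points above the plate without the antibiotic, then above 30% in a dose series; inconclusive = first-round hits that could not be retested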;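 note: growth measured after seven days incubation then overnight dye step; 0% = bacteria only wells and 100% = bacteria with antibiotic; twin plates without the antibiotic show which effects depend on it; some results filed as inactive read as strong as hits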
RecA intein inh = Mtb RecA intein splicing inhibitors, primary screen, biochemical, fluorescence, HTS. AID 2221, 2009. Protein RecA (Mycobacterium tuberculosis (strain ATCC 25618 / H37Rv)), P9WHJ3. hit rate 0.75% among 290,000. cell-free RecA intein splicing. inhibition, %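 (about 9 µM by stock and volumes)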; in the data active = inhibition above about 30%; inconclusive = no clear call, values can overlap the other calls;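 note: 0% = vehicle wells and 100% = reference inhibitor control wells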
Target sequence (P9WHJ3 whole entry, looked up): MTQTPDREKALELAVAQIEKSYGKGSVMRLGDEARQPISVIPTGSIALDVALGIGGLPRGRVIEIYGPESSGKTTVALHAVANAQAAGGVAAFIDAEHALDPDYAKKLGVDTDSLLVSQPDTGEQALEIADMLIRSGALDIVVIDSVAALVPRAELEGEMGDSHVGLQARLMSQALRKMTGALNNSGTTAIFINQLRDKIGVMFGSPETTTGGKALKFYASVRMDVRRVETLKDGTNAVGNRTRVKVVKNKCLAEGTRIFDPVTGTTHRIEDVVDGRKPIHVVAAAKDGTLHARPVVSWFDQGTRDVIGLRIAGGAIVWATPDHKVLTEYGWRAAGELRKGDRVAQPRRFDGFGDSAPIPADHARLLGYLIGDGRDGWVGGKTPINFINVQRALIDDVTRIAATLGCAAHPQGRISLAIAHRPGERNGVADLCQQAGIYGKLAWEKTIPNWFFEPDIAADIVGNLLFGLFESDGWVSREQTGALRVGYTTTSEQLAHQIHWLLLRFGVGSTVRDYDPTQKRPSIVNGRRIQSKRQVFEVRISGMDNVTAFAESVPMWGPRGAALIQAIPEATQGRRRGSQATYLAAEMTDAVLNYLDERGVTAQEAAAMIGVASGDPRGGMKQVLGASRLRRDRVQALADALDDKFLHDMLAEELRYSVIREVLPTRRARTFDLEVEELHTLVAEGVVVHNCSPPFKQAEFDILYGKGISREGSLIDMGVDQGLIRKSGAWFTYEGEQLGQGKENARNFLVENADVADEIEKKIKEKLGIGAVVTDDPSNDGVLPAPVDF
Arbovirus anti repeat = second read-out of Arbovirus anti, no call of its own (marks repeat the call); inhibition, %; measured here: 10K subset replicate screen; many hits read low in the repeat;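 first of two repeat runs on a subset; 0% = infected and 100% = uninfected wells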
Starred values were filed as active, the others as inactive; ? = inconclusive; . = no result given. An excerpt; count on the stated rates, not on these rows.

SMILES	Arbovirus anti	Mtb H37Rv	YopH PTP inh	Mtb bLac sens	RecA intein inh	others
CCOC(=O)C(C)/C(C)=N\Nc1ccc([N+](=O)[O-])cc1[N+](=O)[O-] (centres undefined)	7	6%	.	4	3.8
O=C(Nc1ccccc1Oc1ccccc1)C1CC1	-5	-1%	-31	15	1.9	Arbovirus anti repeat=4
CC(=O)N1CCn2c3ccc(C)cc3c3cccc1c32	-3	-7%	-18	67	1.5
C[C@@H]1CCC[C@]2(O[C@H](CCO)C[C@@H](O)[C@@H]2O)O1	.	6%	.	-3	0.6
Cc1nc(CC(=O)Nc2nc(C(C)(C)C)cs2)cs1	-1	-6%	-41	?	-1.8
Cc1cccc(NS(=O)(=O)c2ccc(NC(=O)N3CCCCC3)cc2)c1	.	.	.	-9	-1.7
Cc1cc(C)nc(-n2nc(C)c(C3(O)C(=O)Nc4ccc(F)cc43)c2N)n1 (centres undefined)	4	5%	-32	-1	-1.2
CC(NC(=O)C1CCN(c2nnc(-n3cccc3)s2)CC1)C12CC3CC(CC(C3)C1)C2 (centres undefined)	-2	10%	-23	57	-0.4
CCCC(=O)Nc1ccc(-c2nc3cc(C)ccc3o2)cc1	5	7%	-18	90	-0.7
COc1ccc(Cl)cc1NC(=O)Nc1cnccn1	.	.	.	-22	-3.4
COCCNC(=O)c1onc(CSc2cccc(C)c2)c1C(=O)O	0	-12%	5	4	-0.8
CCO/C=C1/C(=O)N(c2ccccc2OC)C(=O)c2ccccc21	9	7%	.	-2	-13
COc1ccc(CCNC(=O)c2ccccc2NC(=O)C2=C(C)OCCS2)cc1OC	.	.	.	-9	3.2
C1=CCN(Cc2ccccc2)C1	.	.	.	7	3.1
Cc1ccc(C)c(OCCCN2CCNCC2)c1	.	.	.	-2	1.5
COc1ccc(CNC(=O)C(C)n2nc(C)n3c(cc4occc43)c2=O)cc1 (centres undefined)	.	.	.	-2	2.4
O=C(/C=C/c1ccc(Br)cc1)NC1CCCCCC1	8	-2%	-19	4	1.4
CC(=O)NCC1CCCN(Cc2cn(-c3ccccc3F)nc2-c2cc(C)sc2C)C1 (centres undefined)	1	0%	.	-2	0.6
Nc1ccccc1SCc1ccccc1Cl	.	-16%	.	8	2.0
N/C(=N\OC(=O)c1ccc2c(c1)OCO2)c1ccc(Br)cc1	-4	1%	.	15	-1.6

Ordered by count of non-hydrogen atoms (high to low): part of the list above.
SMILES	Arbovirus anti	Mtb H37Rv	YopH PTP inh	Mtb bLac sens	RecA intein inh	others
CC(=O)NCC1CCCN(Cc2cn(-c3ccccc3F)nc2-c2cc(C)sc2C)C1 (centres undefined)	1	0%	.	-2	0.6
COc1ccc(CNC(=O)C(C)n2nc(C)n3c(cc4occc43)c2=O)cc1 (centres undefined)	.	.	.	-2	2.4
Cc1cc(C)nc(-n2nc(C)c(C3(O)C(=O)Nc4ccc(F)cc43)c2N)n1 (centres undefined)	4	5%	-32	-1	-1.2
Cc1cccc(NS(=O)(=O)c2ccc(NC(=O)N3CCCCC3)cc2)c1	.	.	.	-9	-1.7
COCCNC(=O)c1onc(CSc2cccc(C)c2)c1C(=O)O	0	-12%	5	4	-0.8
CCOC(=O)C(C)/C(C)=N\Nc1ccc([N+](=O)[O-])cc1[N+](=O)[O-] (centres undefined)	7	6%	.	4	3.8
CCCC(=O)Nc1ccc(-c2nc3cc(C)ccc3o2)cc1	5	7%	-18	90	-0.7
CC(=O)N1CCn2c3ccc(C)cc3c3cccc1c32	-3	-7%	-18	67	1.5
O=C(/C=C/c1ccc(Br)cc1)NC1CCCCCC1	8	-2%	-19	4	1.4
Cc1ccc(C)c(OCCCN2CCNCC2)c1	.	.	.	-2	1.5
C[C@@H]1CCC[C@]2(O[C@H](CCO)C[C@@H](O)[C@@H]2O)O1	.	6%	.	-3	0.6
Nc1ccccc1SCc1ccccc1Cl	.	-16%	.	8	2.0
C1=CCN(Cc2ccccc2)C1	.	.	.	7	3.1

The list goes on:
SMILES	Arbovirus anti	Mtb H37Rv	YopH PTP inh	Mtb bLac sens	RecA intein inh	others
CCOc1ccccc1N(CC(=O)Nc1ccc(S(=O)(=O)N2CCOCC2)cc1)S(=O)(=O)c1ccccc1	-15	12%	-63	0	.
Cc1cc(C(=O)N2CCN(c3ccc(F)cc3)CC2)on1	.	.	.	0	-5.9
Cc1ccc(CNS(=O)(=O)c2ccc3c(c2)NC(=O)CO3)cc1	.	.	.	-2	-2.9
O=c1[nH]c2ccc(S(=O)(=O)Nc3ccc(Br)cc3)cc2[nH]1	.	.	.	5	-1.7
O=c1c(/C=N/OCc2ccc(Cl)cc2Cl)c[nH]n1-c1cccc(Cl)n1	-14	?	.	41	3.9
Cc1cc(C(=O)NCCCN2CCCC2=O)no1	-1	-4%	7	-1	-5.4
Cc1ccc(C)c(N2CCN(C(=O)C(Cc3ccccc3)n3cccc3)CC2)c1 (centres undefined)	-14	11%	-37	3	12
CCOc1cc(C2CC(=O)c3c(ccc4ccccc34)N2)ccc1O (centres undefined)	-7	-3%	-38	1	2.4
CC1CC(C)CN(S(=O)(=O)c2ccc3c(c2)C(C)(C)C(=O)N3C)C1 (centres undefined)	.	.	.	-2	3.6
Cc1ccc(C)c(Nc2ccc(C(=O)NCCc3ccccc3)cn2)c1	-4	16%	-17	1	4.1
Cc1ccc2cc(CN(CC3CCCO3)C(=S)Nc3ccccc3)c(=O)[nH]c2c1C (centres undefined)	27	6%	-5	3	7.7
O=C(Nc1ccc(Oc2ccccc2)cc1)c1ccco1	-6	64%	7	-12	6.7
O=C(Nc1cccc(NC(=O)c2ccc(Br)o2)n1)c1ccc(Br)o1	-5	-6%	-17	-8	.
Fc1cccc(C2NCc3ccccc3-n3cccc32)c1 (centres undefined)	.	.	.	4	0.9
CCC1CCCCN1Cc1nc2c(c(=O)n(C)c(=O)n2C)n1CCC(C)C (centres undefined)	.	18%	-21	-3	-2.4
O=C(CN1CCOCC1)N/N=C/C(Br)=C\c1ccccc1	11	11%	.	-3	3.1
COC1CCCCC1Nc1ccc(C)c(C)c1 (centres undefined)	0	-11%	-41	4	0.3
Cc1cccc(C(P(=O)(c2ccccc2)c2ccccc2)P(=O)(c2ccccc2)c2ccccc2)n1	13	-6%	-12	-1	4.5
CN(C)CCN(C(=O)c1ccc2ccccc2c1)c1nc2ccc(F)cc2s1	.	.	.	4	6.1
O=C(CN1C(=O)C2CC=CCC2C1=O)Nc1nc2ccc(F)cc2s1 (centres undefined)	3	-8%	.	-1	-1.1
O=C1CCC(=O)N1OCCCOc1ccc(Br)cc1Cl	8	-2%	-13	.	-4.5
COc1c(/C=N/NC(=O)[C@H]2C[C@@H]2c2ccccc2)c(CCN(C)C(C)=O)cc2c1OCO2	.	-18%	.	-9	1.0
CC1(C)c2[nH]c3ccccc3c2C[C@H]2C(=O)N(Cc3ccccc3F)C(=O)N21	.	4%	.	94	-7.3
COc1ccc(OC)c(N(CC(=O)Nc2cccc(C(F)(F)F)c2)S(C)(=O)=O)c1	0	5%	.	-2	-0.4
O=C(NCCc1ccccc1)c1cnc2n(c1=O)CCS2	12	1%	.	-4	-1.3
CCC1(c2ccccc2)NC(=S)N(c2ccc(C)c(C)c2)N1 (centres undefined)	-22	8%	.	17	0.8
CCCCOC(=O)c1ccc(NC(=O)C2CCCO2)cc1 (centres undefined)	-5	14µM*	-91	96	-1.3
CCOc1ccccc1NC(=S)NNS(=O)(=O)c1c(C)cc(C)cc1C	4	6%	-27	2	-1.3
CCOC(=O)N1CCN(c2c(N3CCN(C(=O)OCC)CC3)c(=O)c2=O)CC1	.	3%	.	-7	1.6
CCCCc1ccc(NC(=S)NCCO)cc1	-4	32%	.	81	2.7
CCCc1cc(=O)[nH]c(SCC(=O)c2cc(C)n(-c3cc(C)on3)c2C)n1	8	-4%	.	-4	0.6
O=C(NNC(=O)c1ccc(F)cc1)C(=O)N1CCCCC1	1	-6%	-17	0	1.4
c1ccc(P(c2ccccc2)c2ccccn2)cc1	.	-1%	.	1	-2.3
CC(=O)Nc1ccc(NC(=O)N2CCCCC2)cc1	5	-12%	-36	2	1.4
COc1cc(N2C(=O)CSC2=S)cc(OC)c1OC	.	.	.	-3	7.0
CCOc1ccc(CNC(=O)CCCn2nc(CC)n3c(cc4occc43)c2=O)cc1	.	.	.	4	-1.5
Cc1occc1C(=O)N/N=C/c1cnn(C)c1C	3	-13%	-32	0	-0.9
CCOc1ccc(NC(=S)Nc2ccc(OCc3ccccc3)cc2)cc1	1	?	0	59	-1.6
CC1(C)N=C(N)NC(Nc2cccc(Br)c2)=N1	-1	-1%	-31	7	3.3
N#Cc1ccc(NC(=O)c2cc(=O)c3ccccc3o2)cc1	6	-3%	.	-1	-1.2

Overlap with the part before: two compounds, followed by the next part.
SMILES	Arbovirus anti	Mtb H37Rv	YopH PTP inh	Mtb bLac sens	RecA intein inh	others
CC1(C)N=C(N)NC(Nc2cccc(Br)c2)=N1	-1	-1%	-31	7	3.3
N#Cc1ccc(NC(=O)c2cc(=O)c3ccccc3o2)cc1	6	-3%	.	-1	-1.2
CC(=O)C1=C(O)C(=O)N(c2cc(C(C)(C)C)on2)C1c1ccc(Br)cc1 (centres undefined)	1	5%	-34	1	12
CCC(=O)c1ccc(OC(=O)c2cnccn2)cc1	-5	-4%	.	5	2.3
Clc1ccc(C2NCCc3[nH]cnc32)cc1 (centres undefined)	7	2%	0	-1	1.1
CC(=O)OCCNC(=O)c1cccnc1	8	-14%	-39	-4	-3.4
CCOC(=O)c1cc(S(=O)(=O)N2CCC(C)CC2)cn1C	.	.	.	-5	0.2
COc1ccccc1C(=O)NCC(=O)NC(C)c1ccc(-n2ccnc2)cc1 (centres undefined)	.	.	.	-17	0.4
CCCn1c(-c2ccc(C(=O)OC)cc2)nc2c1c(=O)[nH]c(=O)n2Cc1ccccc1	.	.	.	3	-1.0
O=C(CCc1c[nH]c2ccccc12)N1CCCC1	.	.	.	9	-1.4
Cc1ccc(CCNC(=O)Cn2ncc3c([nH]c4ccccc43)c2=O)cc1	.	.	.	-4	-2.5
O=C(Nc1ccncc1)c1cn(-c2ccccc2)nc1-c1cccs1	7	.	2	?	.
COC(CN(C)C(C(=O)NC1CCCCC1)c1ccccc1)OC (centres undefined)	0	-1%	.	-9	-1.2
CCc1ccccc1NC(=O)N[C@@H](C)C(=O)OC	9	10%	-1	3	2.3
Cc1c(C(=O)NCCCN2CCOCC2)sc2ncnc(N3CCN(c4ccccc4)CC3)c12	-1	2%	-29	.	.
Cc1ccccc1-n1ncc2c([N+](=O)[O-])cc([N+](=O)[O-])cc21	-26	3µM*	-8	99	85*
COc1ccc(-c2csc(N)n2)cc1F	-2	?	.	95	1.6
CC(=O)N1c2ccccc2C(=O)OC1c1cccnc1 (centres undefined)	1	7%	-1	0	-4.7
CCOC(=O)CSc1nnc(CNc2ccc(Cl)cc2)n1Cc1ccccc1	0	-5%	-74	-5	2.6
O=C(N/C(=C\c1ccc(Br)cc1)C(=O)N1CCCC1)c1cccs1	1	3%	.	-6	2.6
O=C(c1ccc2c(c1)OCO2)C1CCCN(Cc2cc(F)ccc2-n2cccn2)C1 (centres undefined)	-9	1%	.	-2	1.7
O=C(CCSc1ccccc1)N1CCCC1	2	0%	.	-10	-1.3
